High-throughput results: PubChem BioAssay, National Center for Advancing Translational Sciences (NCATS)
VDR inh: vitamin D3 receptor (human) inhibition. VDR-SRC2-3 peptide fluorescence polarization, 2 h. Potency, µM, for the others: max response, negative = inhibition, usual class: inhibitors. 400,000 compounds, 0.93% hits; active = well fitted inhibition curve with a large enough effect; inconclusive = small, poorly fitted or top-dose-only effect, or another doubt; inactive = no such curve, though single readings can be large or run the other way; note: series mostly up to about 120 µM
Target sequence (P11473 whole entry, looked up): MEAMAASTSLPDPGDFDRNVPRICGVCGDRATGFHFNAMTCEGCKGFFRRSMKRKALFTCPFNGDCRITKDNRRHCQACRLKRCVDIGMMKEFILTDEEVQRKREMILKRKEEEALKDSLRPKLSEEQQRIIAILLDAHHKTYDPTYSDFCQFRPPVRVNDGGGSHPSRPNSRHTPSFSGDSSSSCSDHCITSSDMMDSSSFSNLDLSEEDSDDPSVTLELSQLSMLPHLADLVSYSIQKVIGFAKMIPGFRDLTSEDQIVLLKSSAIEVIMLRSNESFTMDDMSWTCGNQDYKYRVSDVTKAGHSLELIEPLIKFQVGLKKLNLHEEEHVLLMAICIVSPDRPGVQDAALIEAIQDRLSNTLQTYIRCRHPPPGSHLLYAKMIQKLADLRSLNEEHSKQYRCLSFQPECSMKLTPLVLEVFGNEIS
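Signal is fluorescence polarization, reporting how far test compounds block the interaction of VDR with the SRC2-3 coregulator peptide after a 2 h room-temperature incubation.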
* hit, by the source's call; ? = inconclusive; & = joins results of further samples. % is set by controls: 0 for no effect and ±100 for the full control effect; potency is the fitted concentration of half-maximal effect.

> CCC(C)N(C(=O)c1csnn1)C(C(=O)NCc1ccc(F)cc1)c1ccco1 (stereo not drawn)
  VDR inh: 10%
> CC1(C)CCC(C)(C)c2cc(NC(=O)c3ccc(C(=O)O)cc3)ccc21
  VDR inh: ?
> COc1cccc(C(C(=O)NC2CCCC2)N(C(=O)c2ccco2)c2ccccc2F)c1OC (stereo not drawn)
  VDR inh: 7%
> CCOc1ncccc1C(=O)NCc1ccc(OC)cc1
  VDR inh: 16%
> COCCN(CC(=O)Nc1cccc(C)c1C)C(=O)c1cc2c(s1)CCC2
  VDR inh: -4%
> CCOC(=O)c1c(C)n(C)c2ccc(OCC(O)CN3CCN(C)CC3)cc12 (stereo not drawn)
  VDR inh: -4%
> COCCOC(=O)C1=C(N)OC2=C(C(=O)CC(C)(C)C2)C1c1cccnc1 (stereo not drawn)
  VDR inh: 7%
> CC1CCCC(NC(=O)CN(C)CC(=O)Nc2ccc(F)cc2)C1C (stereo not drawn)
  VDR inh: -12%
> CCOC(=O)C1=C(N)N(c2cc(S(=O)(=O)N3CCOCC3)ccc2Cl)C(=O)C1
  VDR inh: -28%
> Cc1ccc(N(CC(=O)N2CCN(c3cc(C)ccc3C)CC2)S(=O)(=O)c2c(C)nn(C)c2C)cc1
  VDR inh: -1%
> CCC(=O)N1CCN(C(C)=O)C1c1ccccc1 (stereo not drawn)
  VDR inh: -8%
> COc1ccc(C2(c3ccc(OC)cc3)NC(=O)N(CC(=O)Nc3ccccc3)C2=O)cc1
  VDR inh: 4%
> O=C(CSc1oc(-c2ccco2)nc1S(=O)(=O)c1ccc(Cl)cc1)NCC1CCCO1 (stereo not drawn)
  VDR inh: 6%
> COc1cccc(NC(=O)CSc2nnc3ccc(-c4ccccn4)nn23)c1
  VDR inh: -8%
> CCc1nnc(NC(=O)C2CCCCN2S(=O)(=O)c2ccccc2)s1 (stereo not drawn)
  VDR inh: -8%
> CC(C)Oc1ccc(C(=O)NC2CCSc3ccccc32)cc1 (stereo not drawn)
  VDR inh: -10%
> Cn1ncc([N+](=O)[O-])c1C(=O)Nc1ccc2c(c1)OCCO2
  VDR inh: -9%
> Cc1[nH]c2ccccc2c1-c1nc(N)sc1C
  VDR inh: -18%
> O=C(C[n+]1ccc(/C=N/O)cc1)NC1CCCCC1
  VDR inh: -12%
> CCOC(=O)C1=C(CC)OC(N)=C(C#N)C1c1cccs1 (stereo not drawn)
  VDR inh: 12%
> Cc1ccc(C)c(NC(=O)C(=O)NCCc2csc3nc(-c4ccccc4C)nn23)c1
  VDR inh: 16%
> CCOC(=O)c1ccccc1NC(=O)c1n[nH]c(=O)c2ccccc12
  VDR inh: -12%
> COc1ccccc1NC(=S)NCc1ccco1
  VDR inh: 4%
> O=C1CCCN1CCCNS(=O)(=O)c1ccc(Br)s1
  VDR inh: 1%
> CCc1ccc(C(=O)c2cn(CC(=O)Nc3cc(OC)ccc3OC)c3ccc(Cl)cc3c2=O)cc1
  VDR inh: -16%

Sorted by length of the SMILES (high to low): four of the compounds above.
> COCCN(CC(=O)Nc1cccc(C)c1C)C(=O)c1cc2c(s1)CCC2
  VDR inh: -4%
> COc1cccc(NC(=O)CSc2nnc3ccc(-c4ccccn4)nn23)c1
  VDR inh: -8%
> O=C(C[n+]1ccc(/C=N/O)cc1)NC1CCCCC1
  VDR inh: -12%
> COc1ccccc1NC(=S)NCc1ccco1
  VDR inh: 4%

More records follow.
> C/C=C/c1cc(CN2CCN(c3ccc(OC)cc3)CC2)c(O)c(OC)c1
  VDR inh: -18%
> COc1ccccc1CN1CCCC2(CCN(C(C)=O)CC2)C1
  VDR inh: -12%
> CC1=NC(C)Cc2ccccc21 (stereo not drawn)
  VDR inh: -12%
> COc1ccc(NC(=O)c2ccc(CNS(=O)(=O)c3ccc4c(c3)C(C)(C)C(=O)N4C)cc2)cc1
  VDR inh: 4%
> [N-]=[N+]=CC(=O)CNC(=O)[C@@H](Cc1ccccc1)N1C(=O)c2ccccc2C1=O
  VDR inh: -1%
> O=S(=O)(NCc1ccccc1)c1ccccc1Br
  VDR inh: -16%&-20%
> Cc1ccc(NC(=O)Cn2c(=O)n(Cc3ccccc3)c(=O)c3sc4ccccc4c32)cc1
  VDR inh: 6%
> COc1ccc(C)cc1N(C(=O)c1snc(C(N)=O)c1N)C(C(=O)NC1CCCC1)c1ccc(F)cc1 (stereo not drawn)
  VDR inh: -21%
> C=C(C)C(=O)Nc1cccc(C2=NOC3(C2)C[C@@H](C(N)=O)N(C(=O)/C=C/CC)C3)c1 (stereo partly drawn)
  VDR inh: -14%
> CCc1nc2ccccc2c(C(=O)OCC(=O)N(CCOC)c2c(N)n(Cc3ccccc3)c(=O)[nH]c2=O)c1C
  VDR inh: 5%
> Cc1ccccc1NC(=O)C1CC(=O)N(Cc2ccccc2)C1 (stereo not drawn)
  VDR inh: -2%
> Clc1ccc(-c2ccccc2)nn1
  VDR inh: -1%
> CN(C)S(=O)(=O)c1ccc(C(=O)OCC(=O)NCc2ccco2)cc1
  VDR inh: 8%
> O=C(NO)C1CC2C=CC1C2 (stereo not drawn)
  VDR inh: 2%
> Cc1cc(C)c(S(=O)(=O)N2CCN(S(=O)(=O)N3CCCCCC3)CC2)c(C)c1
  VDR inh: -7%
> Cc1ccc(N2C(=O)N(CC(=O)Nc3cccc(C)c3C)C(=O)C2C)cc1 (stereo not drawn)
  VDR inh: -17%
> N#CC(c1ccc(Cl)cc1)c1nc2ccccc2nc1C(F)(F)F (stereo not drawn)
  VDR inh: -5%
> CC(=O)c1ccc(NS(=O)(=O)c2ccc(CC(C)C)cc2)cc1
  VDR inh: -20%
> Cc1n[nH]c(=O)c2c(NC(=O)CSc3nc4ccccc4c(=O)n3-c3ccc(OC(F)F)cc3)oc(C)c12
  VDR inh: -15%
> CCOC(=O)N1C(COCc2ccccc2)C=CCS1(=O)=O (stereo not drawn)
  VDR inh: -14%
> Nc1nnc(SCC(=O)Nc2cc(F)ccc2F)s1
  VDR inh: -3%
> COC(=O)c1c(C(=O)OC)c(-c2ccc(Br)cc2)n2c1CS(=O)C2 (stereo not drawn)
  VDR inh: 8%
> COC(=O)[C@H]1C[C@@H]1[C@H](NC(=O)c1cccnc1)c1ccccc1
  VDR inh: -11%
> Cc1cccc(C(=O)NC(C)c2ccc(-n3ccnc3)cc2)c1C (stereo not drawn)
  VDR inh: 4%
> CC(=O)NC(C)c1ccc(C(=O)CSc2nnc(C3CC3)n2C2CC2)cc1 (stereo not drawn)
  VDR inh: -12%

> O=C(NCCC1=CCCCC1)C1CCC(=O)N(Cc2cccc(C(F)(F)F)c2)C1 (stereo not drawn)
  VDR inh: -10%
> Cc1cc(C)cc(NC(=O)c2cccc(N3CCCS3(=O)=O)c2)c1
  VDR inh: 4%
> CCC(=O)N1CCN(c2ccc(NC(=O)c3ccco3)cc2)CC1
  VDR inh: 0%
> COC(=O)Nc1ccc(OCc2ccccc2)cc1
  VDR inh: 15%
> Cc1cc(Cl)c(S(=O)(=O)NCC2CCCO2)cc1OCC(N)=O (stereo not drawn)
  VDR inh: 1%
> COc1ccc(C(O)(C(C)C)C(CN2CCOCC2)c2ccccc2)cc1 (stereo not drawn)
  VDR inh: 5%
> CCN1CCN(c2nc(-c3ccccn3)nc3ccccc23)CC1
  VDR inh: -20%
> CC(C)c1ccc(NC(=O)c2ccc(F)c(S(=O)(=O)N3CCc4ccccc43)c2)cc1
  VDR inh: 11%
> COC(=O)n1c(=O)oc2cc(S(=O)(=O)N3CCCCC3)ccc21
  VDR inh: -3%
> O=c1c2cc(Cl)ccc2[nH]c(=S)n1Cc1cccs1
  VDR inh: ?
> CCOc1ccc(S(=O)(=O)NC(Cc2cnc[nH]2)C(=O)O)cc1 (stereo not drawn)
  VDR inh: 3%
> CCc1ccc2oc(C(=O)Nc3nonc3CC)c(C)c2c1
  VDR inh: -4%&1%
> Cc1cc(=O)[nH]c(N/N=C/c2ccccn2)n1
  VDR inh: 4%
> c1ccc(C2CC(c3ccccc3)C(c3ccccc3)N2)cc1 (stereo not drawn)
  VDR inh: 7%
> O=C1C(=O)N(Cc2ccncc2)C(c2ccccc2F)/C1=C(\O)c1ccc2c(c1)OCCO2 (stereo not drawn)
  VDR inh: 5%
> Cc1noc(C)c1C(=O)NNc1cc(Cl)ccc1Cl
  VDR inh: -11%
> O=C(Nc1ccccc1N1CCOCC1)c1ccc2c(c1)OCO2
  VDR inh: -19%
> COc1ccc2c(c1)CCc1cc(C(=O)O)sc1-2
  VDR inh: 10%
> Cc1cc(N2CCN(c3ccccn3)CC2)n2c(nc3ccccc32)c1C#N
  VDR inh: -8%
> Cc1ccc(C(=O)N(CC(=O)NC2CCCC2)Cc2cccs2)s1
  VDR inh: -6%
> CC(=O)N1c2ccc(S(=O)(=O)N3CCCC3C(=O)NCc3ccccc3Cl)cc2CC1C (stereo not drawn)
  VDR inh: -19%
> CCOc1ccc(C(=O)CSc2nc3cc(C(=O)NC4CCCC4)ccc3c(=O)n2CC2CCCO2)cc1 (stereo not drawn)
  VDR inh: 5%
> CCN1C(=O)/C(=C/c2ccc(C)o2)N(C)C1=S
  VDR inh: ?
> Cc1ccc(S(=O)(=O)Oc2ccc(C(c3c(C)[nH][nH]c3=O)c3c(C)[nH][nH]c3=O)cc2)cc1
  VDR inh: ?
> COc1ccccc1C(=O)NCC(=O)OCC(=O)c1cccc2ccccc12
  VDR inh: 2%&-13%

> Cc1ccc2c(c1)NC(=O)C(CC(=O)Nc1ccc(Br)c(C)c1)O2 (stereo not drawn)
  VDR inh: -25%
> CCc1ccccc1NC(=O)c1cc(-c2cccc(O)c2)on1
  VDR inh: -9%
> Cc1cc(C)c2c(c1)[C@@H]1C=CC[C@@H]1[C@H](c1ccc(S(=O)(=O)N3CCOCC3)cc1)N2
  VDR inh: ?
> O=C(Nc1ccncc1)c1cc(-c2cccc(Br)c2)nc2ccccc12
  VDR inh: -7%
> Cc1ccccc1CN1CCN(S(C)(=O)=O)CC1
  VDR inh: -29%
> CCOc1ccc(NC(=O)[C@@H](c2ccccc2)N2Cc3ccccc3C2=O)cc1
  VDR inh: -15%
> CSc1ccccc1NC(=O)COc1ccc(S(=O)(=O)N2CCCC2)cc1
  VDR inh: 3%
> CCSc1nnc2c(n1)OC=Nc1ccc(Br)cc1-2
  VDR inh: 9%
> CC(C)C(=O)c1cn(CC(=O)NCc2ccco2)c2ccccc12
  VDR inh: -3%
> O=C(CNC(=S)N(Cc1ccccc1)Cc1cccnc1)NCCc1ccccc1
  VDR inh: -22%
> COCCn1c(COc2cccc(OC)c2)nnc1SCC(=O)NC1CCCC1
  VDR inh: 1%
> CC(=O)c1c(C)[nH]c(C(=O)CN2C(=O)NC(C)(C)C2=O)c1C
  VDR inh: -14%
> CCCn1c(SCC(=O)Nc2ccc(OCC)cc2)nnc1C(C)C
  VDR inh: 5%
> Cc1ccc(/C=C2\SC(=S)N(CCCC(=O)Nc3cccnc3)C2=O)cc1
  VDR inh: -2%
> CC(/C=N/NC(=O)c1cc(-c2ccc(C)s2)[nH]n1)=C\c1ccccc1
  VDR inh: 12%
> COc1cc2c(C(=O)c3ccccc3)c3c4c(cc(OC)c(OC)c4c2cc1OC)CCN3C
  VDR inh: 4%
> COc1ccc(C(=O)Oc2cccnc2)cc1
  VDR inh: -5%
> CCOc1ccc(NC(=O)CCc2c(C)nc3c4c(C)cc(C)nc4nn3c2C)cc1
  VDR inh: -9%
> COc1cc(NC(=O)c2csc(-c3ccncc3)n2)cc(C(=O)Nc2cccc(C(F)(F)F)c2)c1
  VDR inh: -7%
> Cc1nc(NC(C)C)c2oc3ccccc3c2n1
  VDR inh: -8%
> CC(C)N1CC(C(=O)Nc2ccc(C#N)cc2)CC1=O (stereo not drawn)
  VDR inh: ?
> CCCCn1c(N)c(N(CCOC)C(=O)c2ccc3c(c2)C(=O)N(c2cc(C)ccc2C)C3=O)c(=O)[nH]c1=O
  VDR inh: 13%
> COc1ccc2nc3ccccc3nc2c1NC(=O)c1ccc(Cl)cc1Cl
  VDR inh: -13%
> COC(=O)C(C)Sc1n[nH]c(=S)s1 (stereo not drawn)
  VDR inh: -7%
> Cc1ccc(CNC(=O)CSc2nnc3n2CCCCC3)cc1
  VDR inh: -19%

> CS(=O)(=O)N(CC(=O)NN=C1CCCCCC1)c1ccc(Oc2ccccc2)cc1
  VDR inh: -6%
> Cc1cc(N2CCCCC2)c(F)cc1[N+](=O)[O-]
  VDR inh: -15%
> COCCN(C(=O)CSc1nnc(-c2ccncc2)n1C)c1c(N)n(CC(C)C)c(=O)[nH]c1=O
  VDR inh: -1%
> NNC(=O)c1cc2c(s1)-c1cc(Cl)ccc1SC2
  VDR inh: -18%
> CC(C)(C)OC(=O)N1CCCC1C(=O)NC(Cc1ccccc1)C(=O)O (stereo not drawn)
  VDR inh: -1%
> Cc1ccc(C2C(C#N)=C(N)SC(N)=C2C#N)c(C)c1
  VDR inh: -30%
> Nc1ccc2nc(NC(=O)C3CCCCC3)sc2c1
  VDR inh: 10%
> COc1ccc(C(=O)c2c(C)c3ccccc3n2CC(O)CNC(C)C)cc1 (stereo not drawn)
  VDR inh: -14%
> CCN(CC(=O)Nc1ccc(OC)cc1)C(=O)CSCc1c(C)noc1C
  VDR inh: -2%
> CCOc1ccc(OCCOCCNCCOC)cc1
  VDR inh: -2%
> CC(=O)N1CCSc2ccc(S(=O)(=O)N3CCC(C)CC3)cc21
  VDR inh: -18%
> O=c1c2cn[nH]c2nc(SCc2ccc3c(c2)OCCO3)n1-c1ccccc1
  VDR inh: 9%
> COc1ccc(C(C(=O)NC2CCCC2)N(Cc2ccc(F)cc2)C(=O)c2ccn[nH]2)cc1OC (stereo not drawn)
  VDR inh: 13%
> Cc1nc2cc(NC(=O)N3CCN(c4ccccn4)CC3)ccc2o1
  VDR inh: 0%
> CCOc1ccccc1NC(=O)CCCc1nc(-c2ccccc2Cl)no1
  VDR inh: 3%
> O=C(NNC(=S)NC1CC2C=CC1C2)c1ccncc1 (stereo not drawn)
  VDR inh: 18%
> CCN(c1ccc(NC(=O)COC(=O)CCc2nc3ccccc3n2-c2ccccc2)cc1)C(C)C
  VDR inh: -15%
> CCOc1cc(C)c(Cl)cc1S(=O)(=O)NCc1ccc2c(c1)OCO2
  VDR inh: -2%

This is a subset; the hit share may differ from the screen's.
